Assay outcomes deposited in PubChem BioAssay by National Center for Advancing Translational Sciences (NCATS).
gsp agonist – qHTS for Agonist of gsp, the Etiologic Mutation Responsible for Fibrous Dysplasia/McCune-Albright Syndrome: qHTS; gsp mutant cells, cAMP HTRF, 30 min; control for the full effect not named in the record; Potency, µM (top dose mostly 76.9 µM), for the others: at the highest dose activation (cAMP increase), hits mostly activators; 340,000 compounds, 0.13% hits; AID 624287, 2012; active = well fitted activation curve with a large enough effect; inconclusive = small, poorly fitted or top-dose-only effect, or another doubt; inactive = no such curve, though single readings can be large or run the other way; cell line not stated here;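 also: phosphodiesterase inhibitor Ro 20-1724 added with compounds to block cAMP breakdown; potency is read from the fitted curve at half-maximal effect; nearly all actives have a fitted effect of over 60% in size; about a fifth of the inactives were tested at one dose only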
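Cells stably selected in G418 were plated at 2000/well, grown 16-24 hr, then given compounds in DMSO with the PDE inhibitor […] (300 uM solution added) for 30 min at 37C; cAMP was read by HTRF.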
TRPV1 PAM – HTS Assay for Compounds that Act as Potentiators of the Vanilloid Receptor 1; Transient receptor potential cation channel subfamily V member 1 (Homo sapiens), Q8NER1; TRPV1-expressing cells, Fluo-8 calcium influx, capsaicin EC20 potentiation; host cell line not named in the record; control for the full effect not named in the record; potentiation, % at 8.33 µM; 320,000 compounds, 0.02% hits; AID 540277, 2011; active means potentiation above 80%; inconclusive means 30% to 80%; inactive means below 30%; also: 0% is about no effect
Target sequence (Q8NER1 whole entry, looked up): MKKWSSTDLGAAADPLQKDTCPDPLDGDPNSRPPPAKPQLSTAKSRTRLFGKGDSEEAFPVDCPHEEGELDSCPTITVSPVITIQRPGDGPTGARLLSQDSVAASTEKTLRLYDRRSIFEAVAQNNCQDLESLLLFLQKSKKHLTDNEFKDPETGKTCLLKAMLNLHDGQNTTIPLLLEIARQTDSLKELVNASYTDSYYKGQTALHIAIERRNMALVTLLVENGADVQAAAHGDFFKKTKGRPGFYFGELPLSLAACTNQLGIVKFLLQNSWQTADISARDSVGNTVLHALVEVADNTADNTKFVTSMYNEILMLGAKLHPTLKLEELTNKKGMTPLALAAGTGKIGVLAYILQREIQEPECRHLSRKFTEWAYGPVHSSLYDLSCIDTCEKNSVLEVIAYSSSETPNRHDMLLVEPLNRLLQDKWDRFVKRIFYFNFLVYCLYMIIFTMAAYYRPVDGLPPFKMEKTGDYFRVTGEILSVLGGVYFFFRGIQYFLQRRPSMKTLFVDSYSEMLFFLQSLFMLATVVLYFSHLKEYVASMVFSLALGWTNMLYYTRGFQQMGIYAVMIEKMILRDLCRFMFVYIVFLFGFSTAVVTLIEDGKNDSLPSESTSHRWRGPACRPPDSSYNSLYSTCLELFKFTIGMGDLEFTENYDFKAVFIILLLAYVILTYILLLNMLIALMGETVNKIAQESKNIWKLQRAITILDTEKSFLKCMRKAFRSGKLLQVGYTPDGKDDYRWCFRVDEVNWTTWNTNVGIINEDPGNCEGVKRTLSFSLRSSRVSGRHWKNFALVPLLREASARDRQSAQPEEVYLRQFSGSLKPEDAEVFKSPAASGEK
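Fluo-8 calcium influx in TRPV1-expressing cells, kinetic read (ex 480/em 520 nm). Compound added and read 3 min for agonist activity, followed by capsaicin at EC20 final and 2 min further read for enhancement.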
gsp antagonist – qHTS for Antagonists of gsp, the Etiologic Mutation Responsible for Fibrous Dysplasia/McCune-Albright Syndrome: qHTS; gsp-mutant cells, cAMP HTRF, 30 min; control for the full effect not named in the record; Potency, µM (highest dose often 76.9 µM), for inactives: at the highest dose activity change, negative = inhibition, usual class: inhibitors; 340,000 compounds, 0.4% hits; active = falling curve of any shape with a large fitted effect; inconclusive = falling curve, mostly with a smaller effect; inactive = flat or rising curve; cell line not stated here;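 also: intracellular cAMP measured with PDE inhibitor Ro 20-1724 present during compound exposure; potency is read from the fitted curve at half-maximal effect; % is scaled to controls: 0 for no effect and ±100 for the full control effect; nearly all actives have a fitted effect of over 65% in size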
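Cells, 2000/well, grown 16–24 h in DMEM 10% FBS with 0.5 mg/ml G418, then compounds plus […] (300 uM addition stock), 30 min at 37C. cAMP read by HTRF (cAMP-d2 and anti-cAMP antibody-K in lysis buffer) after 30 min RT.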
ClpP mod – qHTS Assay for Activators of ClpP; AID 651965, 2013; purified B. subtilis ClpP, FRET peptide cleavage, 20 min; Potency, µM (doses to about 57.5 µM), for the others: at the highest dose activity change, negative = active; 340,000 compounds, 1.9% hits; active = well fitted falling curve with a large enough effect; inconclusive = small, poorly fitted or top-dose-only effect; inactive = no such curve, though single readings can be large or run the other way; also: potency is read from the fitted curve at half-maximal effect; the source files actives as falling curves though it sought activators and does not explain the sign; nearly all actives have a fitted effect of over 65% in size; many hits overshoot -100%
Target sequence (P80244 whole entry, looked up): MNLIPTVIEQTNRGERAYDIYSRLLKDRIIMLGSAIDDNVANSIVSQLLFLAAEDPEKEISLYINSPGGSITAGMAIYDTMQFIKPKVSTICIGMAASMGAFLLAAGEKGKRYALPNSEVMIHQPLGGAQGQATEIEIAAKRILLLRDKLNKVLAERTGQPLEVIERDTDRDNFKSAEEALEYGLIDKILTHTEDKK
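Purified B. subtilis ClpP, 10 microg/mL final in Tris/HCl pH8 with KCl, BSA, glycerol and Tween-20, cleaved an Abz/nitrotyrosine-quenched decapeptide. Fluorescence (ex 320, em 430) was read at 0 and 20 min at room temperature. Delta was normalized to 5.8 microM ADEP and DMSO/no-enzyme controls.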
Menin MLL FP FL – qHTS Assay for Inhibitors Targeting the Menin-MLL Interaction in MLL Related Leukemias: Competition With Fluorescein Labeled MLL-derived Peptide; FP activity change, % at 61.4 µM; 290,000 tested, under 10 active; Fluorescence polarization, fluorescein-MLL peptide displacement from menin; AID 1766, 2009; inconclusive = falling polarisation curve, or a change in total fluorescence; inactive = total fluorescence flat and polarisation flat or rising; no compound was filed as active; the % refers to the polarisation; negative = inhibition;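 also: % of control where 0% means no effect; inhibitors lower the polarisation; unlabelled MLL peptide was the positive control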
Sfp inh – qHTS Assay for Inhibitors of Bacillus subtilis Sfp phosphopantetheinyl transferase (PPTase) | 4'-phosphopantetheinyl transferase ffp (Bacillus subtilis), Q9F4F7 | Biochemical Sfp PPTase activity, qHTS | Potency, µM, for inactives: max response, negative = inhibition, hits mostly inhibitors | 310,000 compounds, 3.5% hits | AID 1490, 2009; active = well fitted inhibition curve with a large enough effect; inconclusive = small, poorly fitted or top-dose-only effect, or another doubt; inactive = no such curve, though single readings can be large or run the other way;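 also: the enzyme is Sfp with the accession as filed and its product quenches rhodamine fluorescence; potency is read from the fitted curve at half-maximal effect; 0% = enzyme reaction without inhibitor and -100% = no enzyme wells; top concentration of the series not given in the record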
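Reaction rates are the 30-min fluorescence difference (ex 525, em 598 nm) in wells containing 15 nM Sfp, 5 uM rhodamine-CoA and 12.5 uM BHQ-2-YbbR at pH 7.6 with 10 mM MgCl2.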
CtBP-E1A inh – qHTS Assay for Inhibitors of the CtBP/E1A Interaction. CtBP / adenovirus E1A interaction (AlphaScreen). AlphaScreen GST-E1A/His-CtBP binding, 1536-well; active compounds read low; control for the full effect not named in the record. activity change, % (concentration not given with the values). 340,000 compounds, 0.49% hits. AID 651724, 2012; in the data active means activity change below about -65%; inconclusive means about -30% to -65%; inactive means above about -30%; also: % is scaled to controls: 0 for no effect and ±100 for the full control effect
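GST-E1A and His-tagged CtBP (125 nM each as 5X stock) were preincubated with pin-transferred compound for 2 h at 37 °C in the dark, then glutathione donor and nickel acceptor beads were added for 1 h before AlphaScreen reading.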
* marks the source's active call; other numbers are inactive results; u = inconclusive; x = no result given; & = joins results of further samples; [ ] = remark or other dose. An excerpt; the hit share may differ from the screen's.

SMILES	gsp agonist	TRPV1 PAM	gsp antagonist	ClpP mod	Menin MLL FP FL	Sfp inh	CtBP-E1A inh
CCOC(=O)C1CCN(/C=C2/C(=O)NC(=O)N(c3ccc(OCC)cc3)C2=O)CC1	-15%	0	-7%	0.1%	12	-15%	8
CN1C(=O)NC(=O)C(N=Nc2ccc(Cl)cc2)C1=O (stereo unspecified)	u	x	-10%	-1.3%	x	x	-24
COc1cc(CNCCc2c[nH]c3ccccc23)cc(OC)c1	15%[15.4 µM]	20	10%	2.3%	9.2	2%	-12
O=C(CN1CC=C(c2ccccc2)CC1)NC(=O)NCc1ccccc1	-2%[15.4 µM]	-8	8%	0.9%	7.5	12%	8
CC(=O)c1ccc(NC(=O)c2cc(CC(C)C)on2)cc1	-37%[inhibitor]	-8	6%	-6.8%	1.2	12%	-2
CC(=O)OCC(=O)[C@H]1CC[C@H]2[C@@H]3CC[C@H]4C[C@H](O)CC[C@]4(C)[C@H]3C(=O)C[C@]12C	x	1	-7%	1.3%	x	x	7
C/C(=N\NC(=O)c1ccccc1O)c1c(O)n(C2CCCCC2)c(=O)[nH]c1=O	-5%	-16	0%	-1.6%	x	10%	x
CC(=NCc1ccc2c(c1)OCO2)c1c(O)n(-c2ccccc2)c(=O)[nH]c1=O	12%[15.4 µM]	1	-4%	-0.1%	3.0	23%	-3
Cc1ccc(/C=C2/C(=O)NC(=O)N(C)C2=O)cc1	29%[15.4 µM]	-5	7%	x	-7.8	u	5
Cc1ccc(CN2CCCC(C(=O)c3sccc3C)C2)o1 (stereo unspecified)	14%	-5	-10%	x	-1.2	4%	-26
COc1cccc2c1cc([N+](=O)[O-])c1c(C(=O)O)cc3c(c12)OCO3	x	x	-20%	0.8%	u	-26%&0%&4%	7
Cc1nn(-c2ccccc2)c(Cl)c1/C=C(\CC(=O)O)c1nc2ccccc2s1	26%	-8	-19%	-4.7%	6.4	2%	-2
COCCO[C@H]1CCC2C3CC=C4C[C@@H](O)CC[C@]4(C)C3CC[C@@]21C (stereo partly specified)	-8%	x	-10%	x	x	x	6
Cc1ccc2cccc(OC(=O)N(C)c3ccccc3)c2n1	24%	-10	8%	u	-1.4	6%	2
CN1CCN(c2ccc3nccnc3c2)CC1	12%[15.4 µM]	-10	5%	x	u	6%	6
COc1cc2c(c(OC)c1)C(=O)OC(C)CCCC(=O)CCCCC2 (stereo unspecified)	8%[15.4 µM]	u	x	x	-0.3	4%	8
C=CCn1c(O)c(C(CC)=NCc2ccco2)c(=O)[nH]c1=O	-10%[15.4 µM]	5	6%	-0.6%	-1.3	16%	0
O=c1c2ccccc2nc(/C=C/c2ccccc2O)n1-c1ccccc1O	x	3	x	x	u	3%	x
CC(c1ccc(F)cc1)n1cc(C(=O)NCc2ccc3c(c2)OCO3)nn1 (stereo unspecified)	12%	-4	8%	1.2%	-1.1	5%	-1
CCN(CC)c1ccc(N=Cc2c(O)n(-c3ccc(OC)cc3)c(=O)[nH]c2=O)cc1	-10%	12	3%	-4.3%	u	u	-5
N=c1n(CCO)c2ccccc2n1Cc1ccccc1	18%	8	7%	-4.8%	4.9	20%	-2
COc1ccc(S(=O)(=O)NCc2ccc(C(=O)N3CCC4(CC3)OCCO4)cc2)cc1	16%	-4	1%	0.4%	-0.5	16%	2
CCN1C(=O)NC(=O)/C(=C\c2cn(CC(=O)N3CCCC3)c3ccccc23)C1=O	-4%[15.4 µM]	9	-26%	x	u	56µM*	4
CCCNC(=O)N1[C@H]2CC[C@@H]1C(C(=O)OC)=C(c1cccc(C#N)c1)C2	-4%	4	5%	2.5%	x	x	28
Clc1ccc2c(c1)C(c1ccccc1Cl)=NCc1nnc(N3CCN(CCSc4ccccc4)CC3)n1-2	-32%[inhibitor]	-1	-2%	-4.4%	-0.5	u	-20

New compounds follow
SMILES	gsp agonist	TRPV1 PAM	gsp antagonist	ClpP mod	Menin MLL FP FL	Sfp inh	CtBP-E1A inh
Cc1ccc(-n2c(O)c(C=NCc3ccco3)c(=O)[nH]c2=S)cc1C	-2%[15.4 µM]	-5	-8%	x	u	20µM*	2
O=C(CN1CC=C(c2ccccc2)CC1)Nc1cc(Cl)ccc1Cl	1%	7	-4%	-2.1%	7.6	-12%	-12
CN(C)P1(N(C)C)=NC(C(F)(F)F)=NC(C(F)(F)F)=N1	-21%	1	4%	1.7%	4.5	u	-1
N/C(=N/[N+](=O)[O-])N1CCN(C(=O)Oc2ccc([N+](=O)[O-])cc2)CC1	21%	-1	10%	0.7%	2.0	21%	x
CCOP(=O)(Oc1ccccc1)c1c([N+](=O)[O-])cc(C(F)(F)F)cc1[N+](=O)[O-] (stereo unspecified)	-33%[inhibitor]	22	-3%	x	-0.1	4%	0
COc1ccc(-n2c(O)c(C(C)=NCCN3CCNCC3)c(=O)[nH]c2=O)cc1	u	8	9%	0.7%	3.6	-6%	8
N[C@@H](Cc1c[nH]c2ccccc12)c1nnc(SCc2ccc(F)cc2)o1	-2%	-15	13%	-3.7%	-0.4	-18%	5
N#CC1=C(N)Oc2c(c(=O)sc3ccccc23)C1c1cccnc1 (stereo unspecified)	8%[15.4 µM]	-1	-12%	0.0%	2.7	26%	3
COC(=O)C1=C(c2ccc(F)cc2F)C[C@@H]2CC[C@H]1N2C(=O)NCCCOC(C)C	-50%[inhibitor]	1	6%	-0.7%	x	x	4
C=CCOc1c(Cl)cc(CNc2ccc3[nH]c(=O)[nH]c3c2)cc1OC	19%	-20	4%	39%	2.8	-3%	-20
c1cncc(CNCCc2ccc3c(c2)OCO3)c1	-20%	2	5%	1.6%	-1.3	-2%	x
CC1N=C(c2ccccc2Cl)c2cc(Br)ccc2NC1=O (stereo unspecified)	0%	7	0%	x	4.2	1%	-1
C[C@H]1CNC(=O)c2c(C(=O)Nc3ccc(CNC(=O)OC(C)(C)C)cc3)ncn21	2%	x	x	-2.9%	x	x	u
CC(=O)N(C)C1=Nc2ccc(Cl)cc2C(c2ccccc2)=[N+]([O-])C1	7%	x	8%	x	x	x	6
COc1cc(CNCCc2c[nH]c3ccccc23)cc(OC)c1OC	-43%[inhibitor]	x	x	-0.7%	x	x	-2
CCN1C(=O)c2ccccc2Sc2ccc(C(=O)N3CCC4(CC3)OCCO4)cc21	-9%	-7	-5%	0.1%	5.5	14%	4
CCN1CCN(c2ccc(N)c(C)c2)CC1	10%[15.4 µM]	1	-7%	x	-0.6	10%	-3
CN1CCN(Cc2nc3ccccc3n2C)CC1	20%	4	0%	-0.8%	-1.1	8%	-16
CCOC(=O)CC(SP1(=S)OCC2(CCCCO2)C(C2CCCCO2)O1)C(=O)OCC (stereo unspecified)	6%	x	-10%	x	x	x	7
O=c1[nH]c(=S)n(C2CC2)c(O)c1C=NCCN1CCOCC1	-2%[15.4 µM]	u	5%	-0.7%	5.4	-7%	0
CSc1ccccc1C(=O)C1CCCN(Cc2cccc(C)n2)C1 (stereo unspecified)	-1%[15.4 µM]	11	4%	x	0.1	-3%	8
C[C@]12CC[C@H](O)CC1=CCC1C2CC[C@]2(C)C(=O)[C@H](Br)CC12 (stereo partly specified)	0%	x	-15%	1.3%	x	x	6
Cc1ccc2c(c1)CCCN2N=O	-25%[15.4 µM]	-2	17%	-1.0%	0.3	3%	7
c1ccc(-c2ccc(-c3n(-c4ccccn4)c4ccccc4[n+]3-c3ccccn3)cc2)cc1	23%	8	u	4.2%	-0.5	2%	x
CN(C)CCN(C(=O)COc1ccc(Cl)cc1)c1nc2cc3c(cc2s1)OCO3	-97%[inhibitor]	4	1%	-2.1%	0.6	-20%	-17

Next part:
SMILES	gsp agonist	TRPV1 PAM	gsp antagonist	ClpP mod	Menin MLL FP FL	Sfp inh	CtBP-E1A inh
Cc1c(N=Nc2c(O)n(Cc3ccccc3)c(=O)[nH]c2=O)c(=O)n(-c2ccccc2)n1C	-97%[inhibitor]	-3	2%	-16%	15	7%	-72*
CC(=O)n1cc(C=C2C(=O)NC(=O)NC2=O)c2ccccc21	5%	1	-9%	-0.7%	-3.6	22µM*	-6
Cc1ccccc1N1C(=O)CC(=O)N(c2ccccc2C)C1=O	8%	15	-4%	0.5%	u	-6%	-1
O=C(NC(Oc1ccccc1)C(Cl)(Cl)Cl)c1ccccc1 (stereo unspecified)	-16%	-6	8%	-3.1%	3.6	25%	8
CCOC1=C(N2CC2)C(=O)C(OCC)=C(N2CC2)C1=O	7%[15.4 µM]	x	-14%	-0.7%	x	x	-1
Oc1ccc(CC2(N3CCCC3)CCCCC2)cc1	-38%[inhibitor]	-1	5%	-1.6%	-1.1	6%	x
COc1ncccc1C(=O)NCC(CC(=O)O)c1ccccc1 (stereo unspecified)	0%	-8	-14%	-1.7%	-0.1	9%	-5
Cc1cc(-c2n[nH]c(=S)n2-c2ccc(C)c(C)c2)no1	-2%[15.4 µM]	-1	-22%	-8.7%	0.1	u	7
COc1cccc(CNCCc2ccc3c(c2)OCO3)c1OC	2%	-15	7%	1.8%	3.8	-26%	x
N#CC(=C(O)c1ccc(S(=O)(=O)N(CCCl)CCCl)cc1)c1nc2ccccc2[nH]1	u	x	6%	x	x	x	-13
CCOc1ccc(S(=O)(=O)N2CCC(C(=O)N3CCOCC3)CC2)cc1C	-13%	-9	u	x	0.1	13%	4
N#CCCn1cc(C(=O)O)c(-c2cccc([N+](=O)[O-])c2)n1	9%[15.4 µM]	4	4%	x	-5.5	5%	12
